From PubChem
SmPrx2 inh – blocks S. mansoni peroxiredoxin 2 enzymatic activity; AID 448; actives 0.07% (n = 65,000); Potency, µM; S. mansoni Prx2 activity coupled to TGR/GSH (TGR is thioredoxin glutathione reductase), NADPH fluorescence loss, qHTS; some inactives read as strong as hits; active means full or partial inhibition curve with a strong effect at the top dose; inconclusive means weaker partial or single-point curve; inactive means no accepted curve; also: series up to 57 µM; many of its hits are not listed in these tables
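Prx2 inhibition was measured as reduced NADPH consumption when electrons flowed from NADPH through TGR and glutathione to Prx2 and H2O2. Plates were read kinetically over 8 min; enzyme reagents were held at 4 deg C during dispensing.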
LT uptake inh – inhibitors of anthrax lethal toxin internalization. Cells, anthrax lethal toxin internalization, FRET ratio (460/530). Potency, µM (top dose mostly 40 µM), for the others: at the top dose activity change, negative = inhibition, hits mostly inhibitors. actives 0.67% (n = 70,000). AID 912; active = well fitted falling ratio curve with the 530 nm signal flat; inconclusive = other ratio curves, or a change in one channel alone; inactive = flat curves in the ratio and both channels; the % refers to the ratio; also: % is scaled to controls: 0 for no effect and ±100 for the full control effect; nearly all actives have a fitted effect of over 50% in size; tested in ME-180 cells; beta-lactamase reporter
Numbers without * were called inactive; ? = inconclusive; nt = not tested or not shown; & = joins results of further samples; [ ] = another dose, or the depositor's remark. Potency is read from the fitted curve at half-maximal effect. Some of the compounds tested; rates above refer to the full screens.

SMILES,SmPrx2 inh,LT uptake inh
CCOC(=O)N1CCC(NC(=O)CCc2c(C)nc3c(c(C)nn3-c3ccccc3)c2C)CC1,>57,-10.0%
CCCN(CCC)[C@@H]1CCc2ccc(O)cc2C1,>57&>57&>57,?
OC[C@@H]1O[C@@H](n2cnc3c(NC4CCCC4)ncnc32)[C@H](O)[C@H]1O,>57,?
CCOc1ccc(NC(=O)c2ccco2)cc1,>57,-13.0%
COC(=O)c1ccccc1NC(=O)CSc1nc(-c2ccco2)cc(C(F)(F)F)n1,>57,-12.7%
CN1CCN(c2nc(-c3cccs3)cc(C(F)(F)F)n2)CC1,>57,-5.7%
CNC(=O)C(Sc1ccccc1)c1ccccc1 (configuration not stated),nt,-14.9%
CCOC(=O)Cn1c(=O)c2c(nc(N3CCCCC3)n2C)n(C)c1=O,>57,-20.5%
CCc1nnc(NC(=O)C2CCN(c3cnccn3)CC2)s1,>57,-3.6%
COc1ccc(N2C(=O)C3CCCN3C2c2cccc(F)c2)cc1Cl (configuration not stated),>57,2.0%
Nc1nonc1-c1nc2ccccc2n1CC(=O)N1CCN(c2ccc(F)cc2)CC1,?,-18.1%
OCCN1CCN(c2nc(-c3ccccc3)nc3c2oc2ccccc23)CC1,>57,?
CC(c1ccco1)N(C(=O)c1ccc(S(=O)(=O)N2CCCCC2)cc1)c1ccccn1 (configuration not stated),>57,-6.7%
Cc1ccc(C2(C(F)(F)F)NC(=O)N3CCCN=C3S2)cc1 (configuration not stated),>57,-13.7%
CCC1CCCN1Cn1cnc2c([nH]c3ccccc32)c1=O (configuration not stated),>57,-2.9%
CCOCCn1c(SCCCc2ccccc2)nc2c1c(=O)[nH]c(=O)n2C,>57,-12.6%
CN1C(=O)c2ccc(NC(=O)c3c(F)c(F)c(F)c(F)c3F)cc2C1=O,>57,27.5%
CCCCC[C@@H](O)[C@@H]1C(=O)O[C@@H](C)[C@@H](O)\C=C/C=C\C=C/C=C\C=C(\C)[C@H](O)C[C@H](O)C[C@H](O)C[C@H](O)C[C@H](O)C[C@H](O)C[C@@H]1O,>57,-8.2%[8 µM]
COc1ccccc1CN1CCCC(C(=O)N(C)Cc2ccccc2)C1 (configuration not stated),>57,nt
CC1(C)CC(C2N3CC4(C)CN2CC(C)(C3)C4=O)CCO1 (configuration not stated),>57,-7.8%
COC(=O)C1=C(C)Nc2nnnn2C1c1ccc(Cl)cc1Cl (configuration not stated),>57,-15.0%
COc1cccc(CNC(=O)C2CCN(S(=O)(=O)c3ccc(F)cc3)CC2)c1,>57,-17.7%
CCOC(=O)/C=C1\SCC(=O)N1Cc1nnc(-c2ccccc2Br)o1,>57,-8.6%
Cc1ccc2cc(CN(CC3CCCO3)C(=O)C(C)C)c(=O)[nH]c2c1 (configuration not stated),>57,-6.2%
Cn1c(=O)c2c(ncn2CC(=O)N2CCN(c3ccc(F)cc3)CC2)n(C)c1=O,>57,-3.9%
NS(=O)(=O)Cc1noc2ccccc12,>57,1.8%
CC(C)(C)SCCNC(=O)CSc1ccccc1,nt,6.5%
CCOC(=O)C1=CN(C)C=C(C(=O)OCC)C1c1ccsc1,>57,?
CCOC(=O)c1cccc(NC(=O)C2CCCN(S(=O)(=O)c3c(C)nn(C)c3C)C2)c1 (configuration not stated),>57,-18.7%
COc1ccc(S(=O)(=O)Cc2ccc(C(=O)N3CCN(c4ccccc4)CC3)o2)cc1,>57,-26.8%
Cn1c(=O)c2c(nc(CN3CCC(C(N)=O)CC3)n2CCCc2ccccc2)n(C)c1=O,>57,0.1%
Brc1ccc(NCc2nnc3n2CCCCC3)cc1,>57,10.0%
COc1cccc(NC(=O)N2CCCC2C(=O)NCC(C)C)c1 (configuration not stated),>57,-5.0%
Cc1cc(N2CCN(c3ccccc3)CC2)nc(-c2ccccc2)n1,>57,?
CC(C)CCNC(=O)C(c1ccco1)N(CC1CCCO1)C(=O)Cn1nnc2ccccc21 (configuration not stated),>57,?
CC1CCCCN1C(=O)c1cnn2c(C(F)(F)F)cc(-c3ccco3)nc12 (configuration not stated),nt,1.9%
COC(=O)[C@@]1(Cc2ccccc2)[C@H]2c3cc(C(=O)N4CCCC4)n(Cc4ccsc4Br)c3C[C@H]2CN1C(=O)c1ccccc1,>57,7.2%
Cc1ccc(N2C(=O)c3cccc4c(N5CCN(C)CC5)ccc(c34)C2=O)c2cccnc12,>57,2.5%
CCc1cc(=O)n2[nH]c(C)c(-c3ccccc3OC)c2n1,>57,-10.3%
CCCOC(=O)NC(CC)COC(=O)Nc1cccc(C)c1C (configuration not stated),>57,2.7%

Looked up by structure from above:
SMILES,SmPrx2 inh,LT uptake inh
COC(=O)[C@@]1(Cc2ccccc2)[C@H]2c3cc(C(=O)N4CCCC4)n(Cc4ccsc4Br)c3C[C@H]2CN1C(=O)c1ccccc1,>57,7.2%
COc1cccc(NC(=O)N2CCCC2C(=O)NCC(C)C)c1 (configuration not stated),>57,-5.0%
CCOC(=O)/C=C1\SCC(=O)N1Cc1nnc(-c2ccccc2Br)o1,>57,-8.6%

3 compounds out of the list, sorted by molecular weight, ascending.
SMILES,SmPrx2 inh,LT uptake inh
CC1CCCCN1C(=O)c1cnn2c(C(F)(F)F)cc(-c3ccco3)nc12 (configuration not stated),nt,1.9%
CCOC(=O)/C=C1\SCC(=O)N1Cc1nnc(-c2ccccc2Br)o1,>57,-8.6%
Cc1ccc(N2C(=O)c3cccc4c(N5CCN(C)CC5)ccc(c34)C2=O)c2cccnc12,>57,2.5%

The listing continues.
SMILES,SmPrx2 inh,LT uptake inh
CC(C)c1nnc(NC(=O)c2ccc(S(=O)(=O)N3CCOCC3)cc2)s1,>57,7.4%
CCC(=NCC1CCCO1)c1c(O)[nH]c(=O)[nH]c1=O (configuration not stated),>57,-15.4%
Nc1c(S(=O)(=O)O)cc(Nc2ccc(Nc3nc(Cl)nc(Nc4ccc(S(=O)(=O)O)cc4)n3)c(S(=O)(=O)O)c2)c2c1C(=O)c1ccccc1C2=O,>57,?
O=C(O)C[C@H]1OCC=C2C[N@@+]3([O-])CC[C@]45c6ccccc6N[C@@H]4[C@@H]1[C@H]2C[C@H]53,>57,-2.4%[8 µM]
Cn1nc(C(=O)Nc2cccc(C(F)(F)F)c2)ccc1=O,>57,12.3%
COc1ncc2nc(-c3cccs3)c(=O)n(CCC#N)c2n1,>57,?
COc1cc(NC(=O)c2noc3c2CCCC3)c(OC)cc1Cl,>57,-2.3%
CC(=O)c1cccc(NC(=O)C=C(C)C)c1,>57,13.8%
COc1ccc(OC)c(N(CC(=O)Nc2ccc(NC(C)=O)cc2)S(C)(=O)=O)c1,>57,-3.7%
Cc1ccc2nc(Nc3ccc4[nH]c(=O)[nH]c4c3)c(-n3nc(C)cc3C)nc2c1,>57,?
O=c1[nH]c(CN2CCN(C/C=C/c3ccccc3)CC2)nc2ccccc12,>57,7.1%
N#Cc1ccccc1-c1nc(NCCN2CCOCC2)c2ccccc2n1,>57,2.4%
N#CCCCCC#N,nt,15.5%
Cc1cc(SCC(=O)c2ccccc2)nc(C)n1,>57,nt
C[C@H]1CN(C2CCC(C#N)(c3ccc(F)cc3)CC2)CC[C@@]1(C(=O)O)c1ccccc1 (some centres not stated),>57,-10.9%[3.58 µM]
CS(=O)(=O)N(CC(=O)Nc1ccc2c(c1)OCO2)Cc1ccc(Cl)cc1,>57,2.9%
COCCN(C(=O)CCCC(=O)Nc1ccccn1)C(C(=O)NC1CCCC1)c1ccc(C)cc1 (configuration not stated),>57,13.9%
CCNc1ncc2nc(-c3cn(C)c4ccccc34)c(=O)n(CCC#N)c2n1,>57,?
COc1ccc(N(C(=O)c2cccc(OC)c2OC)C2C=CS(=O)(=O)C2)c(OC)c1 (configuration not stated),>57,-15.7%
COc1cc(N)c(Cl)cc1C(=O)CCC1CCN(CCNS(C)(=O)=O)CC1,>57,?
Cc1onc(-c2ccccc2)c1C(=O)N1CCOCC1,>57,6.4%
CCNC(=O)c1c(C)[nH]c(C(=O)OCC)c1C,>57,-20.4%
O/N=C1/CCCSc2ccccc21,nt,?
O=c1cnnc(NCc2ccccc2)[nH]1,>57,-3.5%
O=C(NCc1ccccc1)C1CCN(S(=O)(=O)N2CCCCCC2)CC1,>57,7.8%
Cn1c(=O)[nH]c(=O)c2c1nc(N1CCCCCC1)n2CCCSc1nc2ccccc2o1,>57,-7.3%
CCC1(CC)C(=O)N(C)C(=O)NC1=Nc1ccccc1,>57,-3.4%
COCCCN=C(c1ccco1)n1c(=S)nc(-c2ccco2)n(CCCOC)c1=S,>57,-13.3%
COc1ccc(N2CCN(C(c3cc(OC)ccc3OC)c3nnnn3Cc3ccco3)CC2)cc1 (configuration not stated),>57,-3.9%
CCOC(=O)Cn1c(=O)oc2cc(S(=O)(=O)N3CCCC(C(=O)OCC)C3)ccc21 (configuration not stated),>57,-2.4%
CCOC(=O)c1c(NC(=O)CSc2nnc(CNc3ccc(F)cc3)o2)sc(C)c1C,>57,-9.8%
CCCCn1c(O)c(C(C)=Nc2ccc(OCC)cc2)c(=O)[nH]c1=O,>57,?
CC1(C)O[C@@H]2O[C@H]([C@H](O)CO/N=C3/[C@H]4O[C@@H]4[C@@H](O)[C@H]4[C@H]3CCn3c(=O)n(-c5ccccc5)c(=O)n34)[C@@H](O)[C@@H]2O1,nt,8.3%[8 µM]
Cc1nc2ccc(S(=O)(=O)NCC(=O)N3CCC(N4CCCCC4)CC3)cc2s1,>57,-14.0%
C(=N\n1cnnc1)/C1CCCCC1,>57,0.2%
CCCCOCCCNC(=O)COc1ccccc1,nt,-3.6%
Cc1ccc(C)c(NC2=NS(=O)(=O)c3ccccc32)c1,>57,-17.4%
CCOc1ccc2c(c1)N(C(=O)CN1C(=O)CCC1=O)C(C)(C)C=C2C,>57,-14.3%
CC(=O)Nc1ccc(C(=O)Cn2nnc3ccccc3c2=O)cc1,>57,-3.6%
CCCCCNC(=O)c1cc(S(=O)(=O)N2CCCCC2)ccc1F,>57,-8.3%
COc1ccc(-c2cc(C(=O)N3CCN(C(c4ccccc4)c4ccccc4)CC3)no2)cc1,>57,5.7%
CCOc1ccccc1NC(=O)CSc1nnc(-c2cnccn2)n1C,>57,nt
Cc1ccccc1OCC(=O)NCC1CCCO1 (configuration not stated),>57,-22.4%
COc1ccc(-n2c(=O)c(-c3cccs3)nc3cnc(N(C)C)nc32)cc1,>57,?
Cc1c(O)nc(SC2CC(=O)N(c3ccccc3)C2=O)[nH]c1=O (configuration not stated),>57,-6.8%
CCOC(=O)CN1CC23C=CC(O2)C(C(=O)O)C3C1=O (configuration not stated),>57,-1.2%
Cc1ccc(CNC(=O)CCCn2c(=O)[nH]c3ccccc3c2=O)cc1,>57,2.1%
Cc1cc(C(=O)Nc2ccon2)cs1,>57,-3.5%
CCOc1cc(OCC)cc(C(=O)Nc2cccnc2)c1,>57,11.0%
N[C@@H](Cc1c[nH]c2ccccc12)c1nnc(SCc2ccc(Cl)cc2)o1,>57,-18.8%
COc1ccc(S(=O)(=O)N2CCN(C(=O)c3c(C)nn(-c4ccccc4)c3Cl)CC2)cc1,>57,2.0%
COCC(=O)NCCc1ccc(S(N)(=O)=O)cc1,nt,-4.9%
CCOC(=O)N1CCC(NC(=O)Cn2cc3c(n2)CCCCC3)CC1,>57,-5.1%
O=C(Oc1ccccc1)N1CCC2(CCN(Cc3nccs3)CC2)CC1,>57,2.2%
Cc1cc(NC(=O)CN2CC3CC(C2)c2cccc(=O)n2C3)nc2c1c(=O)oc1ccccc12 (configuration not stated),>57,6.9%
Cc1cc(C)c2c(c1)cc(C)c1nnc(SCC(=O)Nc3cc(C)on3)n12,>57,-4.3%
C[C@@H](C(=O)O)c1cccc(C(=O)c2ccccc2)c1,>57&>57,?
C[C@@H](C(=O)NCc1ccccc1)[C@@H]1C[C@@]1(C)[C@@H](NC(=O)OCc1ccccc1)c1ccccc1,>57,9.8%
O=C(Nc1ccc(N2CCN(C(=O)c3ccco3)CC2)cc1)c1cccs1,>57,-5.1%
COc1ccc(Cn2nnnc2C(c2ccccc2Cl)N2CCN(C3CCCC3)CC2)cc1 (configuration not stated),>57,-18.8%

The listing continues.
SMILES,SmPrx2 inh,LT uptake inh
CCCCn1c2nc3ccccc3nc2c2c(=N)oc(C)nc21,>57,?
CC(N)=NCCCC[C@H](N)C(=O)O,>57&>57,?
CCCOc1ccc(/C(O)=C2/C(=O)C(=O)N(c3cc(C)on3)C2c2ccc(C(=O)OC)cc2)cc1 (configuration not stated),>57,?
CCCCN(CC)S(=O)(=O)N1CCC(C(=O)NCCCN2CCOCC2)CC1,>57,-10.5%
O=C1C[C@@H]2OCC=C3CN4CC[C@]56c7ccccc7N1[C@@H]5[C@@H]2[C@H]3C[C@H]46 (tested in a mixture with another compound),>57,-1.5%[8 µM]
CCNc1ncc2nc(-c3cc(F)cc(F)c3)c(=O)n(C3CC3)c2n1,>57,?
